# Assay outcomes as filed in PubChem BioAssay.
# HPGD block = inhibitors of human 15-hydroxyprostaglandin dehydrogenase (HPGD); 150,000 tested, 4.3% active; P15428; Potency, µM, inactives show top-dose activity change, negative = inhibition, most hits filed as inhibitors; purified HPGD, NADH fluorescence kinetic, PGE2 substrate; active = well fitted inhibition curve with a large enough effect (not every such curve was filed as active); inconclusive = small, poorly fitted or top-dose-only effect, or another doubt; inactive = no such curve, though single readings can be large or run the other way;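 note: top concentration of the series not given in the record; plate controls included wells without enzyme; inactives centre near -10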
# Target sequence (P15428 whole entry, looked up): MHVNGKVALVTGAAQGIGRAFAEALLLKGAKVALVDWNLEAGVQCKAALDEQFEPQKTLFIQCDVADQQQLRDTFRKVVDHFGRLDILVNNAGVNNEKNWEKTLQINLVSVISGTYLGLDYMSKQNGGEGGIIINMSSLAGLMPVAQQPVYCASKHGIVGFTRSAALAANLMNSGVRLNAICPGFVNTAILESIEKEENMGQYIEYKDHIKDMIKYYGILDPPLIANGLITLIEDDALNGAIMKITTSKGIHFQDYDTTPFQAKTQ
#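 20 nM HPGD preincubated 15 min at room temperature with compound in 50 mM Tris-HCl pH 8, 0.01% Tween 20. Started with 1 mM NAD+ and 30 uM prostaglandin E2; NADH fluorescence (360/450 nm) read 5 times over 30-s intervals, last minus first.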
# The depositor's hits bear a star; ? = inconclusive; & = joins results of further samples. % is set by controls: 0 for no effect and ±100 for the full control effect; potency is the fitted concentration of half-maximal effect. A portion of the library; rates above refer to the full screens.
SMILES	HPGD block
CCCCCCCC/C=C\C/C=C\C/C=C\CCCC(=O)O	0%
C=CCn1c(Cc2ccc(OC)cc2)nnc1SCC(N)=O	-13%
CCOC(=O)/C=C1\NC(=O)CS1	-21%
COc1ccc(C2NC(=O)NC(O)(C(F)(F)F)C2C(=O)c2ccccc2)cc1OC (centres undefined)	-5%
CS(=O)(=O)N1N=C(c2ccc(Cl)cc2)CC1c1cccs1 (centres undefined)	-11%
CC(C)[C@H](NC(N)=O)C(=O)Nc1ccc2c(c1)CCC2	-3%
CC(=O)NC(CCS(C)(=O)=O)C(=O)Nc1nccs1 (centres undefined)	-11%
CCCCn1nnc(NC(=O)c2cc3ccccc3o2)n1	-12%
Cc1ccnn1CC(=O)N/N=C/c1cccs1	-8%
COC(=O)c1sccc1NC(=O)CN(C)NS(=O)(=O)c1ccc([N+](=O)[O-])cc1	-18%
COC(=O)c1ccc(Oc2c(C(F)(F)F)oc3c(CN4CCN(C)CC4)c(O)ccc3c2=O)cc1	-15%
O=C(CCCC(=O)N(CC(=O)NC1CCCC1)Cc1ccccc1)Nc1ccccn1	-11%
CN(C)c1ccnc(-n2cccc2/C=N/OCc2cccc(F)c2)c1C#N	?
CSc1ccc(/C=N\NC(=O)CNc2ccc(C)cc2)cc1	-13%
Cc1cccc(NC(=O)C2CCCC2)c1	-2%
COc1ccc(Cn2nnnc2C(c2cc3ccc(OC)cc3[nH]c2=O)N2CCCCCC2)cc1 (centres undefined)	-15%
COc1cc(-c2coc3cc(O[C@H]4OC(CO)C(O)C(O)C4O)c(OC)c(O)c3c2=O)cc(O)c1OC (some centres undefined)	-5%
NC(=O)c1cnccn1	-8%&-4%&-7%&-5%
Nc1[nH]c(=O)ncc1F	-5%&2%
CCOC(=O)NC(Nc1sc2c(c1C(=O)OC)CCN(C)C2)(C(F)(F)F)C(F)(F)F	-10%

# Reprinted from the part before: three compounds, followed by the next part.
SMILES	HPGD block
NC(=O)c1cnccn1	-8%&-4%&-7%&-5%
Nc1[nH]c(=O)ncc1F	-5%&2%
CCOC(=O)NC(Nc1sc2c(c1C(=O)OC)CCN(C)C2)(C(F)(F)F)C(F)(F)F	-10%
CC(=O)Oc1ccc2oc(/C=C/N(C)C)c([N+](=O)[O-])c2c1	-12%
Cc1ccc(C(=O)NC(=C(Cl)Cl)S(=O)(=O)c2ccccc2)cc1	3%
CCCCCc1nc2c(=O)[nH]c3ccccc3c2o1	-14%
CCc1ccc(Nc2nnc(SCc3cc(=O)n4ccsc4n3)s2)cc1	20µM*
O=C(NCc1cccs1)C1CCCN(c2ncccn2)C1 (centres undefined)	-19%
CC(NS(=O)(=O)c1ccc(CCC(=O)NCc2cccnc2)cc1)c1ccccc1 (centres undefined)	-14%
CCN(CC)S(=O)(=O)c1ccc2nc(NC(=O)c3cccs3)sc2c1	?
Cc1ccc(Oc2cc(C#N)c(C#N)cc2-n2nnc3ccccc32)cc1C	-4%
C#CCN1C(=O)C2C(C(=O)NC)C3C=CC2(O3)C1C(=O)NCc1ccc(OC)cc1 (centres undefined)	-14%
CNC(=O)/C(C#N)=C/c1c(N(Cc2ccccc2)Cc2ccccc2)nc2ccccn2c1=O	-7%
CCSC1=C(C#N)C(c2ccccc2Cl)C(C(=O)c2cccs2)C(O)(C(F)(F)F)N1 (centres undefined)	-14%
COc1ccc(N2CCCn3c2nc2c3c(=O)n(CCCc3ccccc3)c(=O)n2C)cc1	-12%
CC(C(=O)Nc1ccc(C(=O)O)cc1)N1C(=O)c2ccccc2C1=O (centres undefined)	-13%
CCCn1c(-c2ccc(F)cc2)nc2c(N3CCC(N(C)C)C3)nc(C)nc21 (centres undefined)	?
O=C(c1ccc(Cl)c([N+](=O)[O-])c1)N1CCN(c2ccccn2)CC1	-4%
COc1cccc(C(=O)Nc2c3c(nn2-c2cccc(C)c2C)CS(=O)(=O)C3)c1OC	-15%
CC(=O)Nc1ccc(NCC(O)COc2ccccc2)cc1 (centres undefined)	-13%
Cc1ccc(Sc2ncnc(N)c2[N+](=O)[O-])cc1	-19%
COc1ccc(OC)c(CN2CCCC(C(=O)N3CCCCC3)C2)c1 (centres undefined)	1%
COC(=O)CN1C(=O)C(O)(CC(=O)c2ccc(C)o2)c2ccccc21 (centres undefined)	5%
O=C(CCn1c(=S)[nH]c2ccccc2c1=O)NCCCN1CCOCC1	-14%
CCOc1c2ccc(C(=O)NCc3ccccc3OC)cc2nn1CC	?
COc1ccc(OCCCC(=O)NCCc2ccc(OC)c(OC)c2)cc1	-5%
O=C(O)c1cccc(N2C(=O)C3CC=CCC3C2=O)c1 (centres undefined)	-13%
Oc1ccccc1-c1nc(N2CCCC2)c2ccccc2n1	-1%
CCCS(=O)(=O)N1CCC(C(=O)NCCN2CCCC2)CC1	-8%
Cc1cc(C(=O)CSc2nnc(-c3cccnc3)n2-c2ccccc2F)c(C)n1C	-25%
CCOc1ccc(CNC(=S)N/N=C\c2ccc([N+](=O)[O-])cc2)cc1	-23%
COc1ccc(-n2c(=O)c(CCc3ccccc3)nc3cnc(N4CCNCC4)nc32)cc1	?
O=C(CCC(=O)c1cccs1)OCc1nnc(-c2ccccc2)o1	-24%
O=C(Nc1nc2nccc(-c3ccccc3)n2n1)C(Cl)(Cl)Cl	-15%
COC(=O)[C@H]1C[C@@H]1[C@H](NS(=O)(=O)c1ccc(-c2ccccc2)cc1)c1ccccc1	-12%
COc1cc(-c2nnn(CC#N)n2)ccc1OCc1ccccc1	-22%
Cc1ccc(C(=O)N/N=C2/NC(=O)CC(C(=O)Nc3ccccc3)S2)cc1 (centres undefined)	-13%
Cc1ccc(NC(=O)C2(NC(=O)c3cccc(N4C(=O)CSC4c4ccccc4)c3)CCCCC2)cc1 (centres undefined)	-7%
CC(=O)Nc1ccc(NC(=O)C2CCCCC2C(=O)O)cc1 (centres undefined)	-10%
CC(C)c1ccc(N(CC(=O)Nc2ccc(S(=O)(=O)N3CCOCC3)cc2)S(C)(=O)=O)cc1	-15%
COc1ccc(/C=C/C(=O)OCC(=O)Nc2cc(C(F)(F)F)ccc2Cl)cc1	?
NC(=O)[C@@H]1CCCCNc2c(F)cc([N+](=O)[O-])cc2C(=O)N[C@@H](CC(=O)O)C(=O)N[C@@H](CCC(=O)O)C(=O)N1	-9%
CCN(CC)S(=O)(=O)c1cc(C(=O)N2CCc3ccccc32)ccc1Cl	-1%

# Ordered by molecular weight (ascending): some entries from above
SMILES	HPGD block
O=C(O)c1cccc(N2C(=O)C3CC=CCC3C2=O)c1 (centres undefined)	-13%
O=C(CCC(=O)c1cccs1)OCc1nnc(-c2ccccc2)o1	-24%
O=C(CCn1c(=S)[nH]c2ccccc2c1=O)NCCCN1CCOCC1	-14%
COC(=O)[C@H]1C[C@@H]1[C@H](NS(=O)(=O)c1ccc(-c2ccccc2)cc1)c1ccccc1	-12%

# Carrying on:
SMILES	HPGD block
C/C(CCc1ccc2c(c1)OCO2)=N\NC(=O)c1ccccc1Cl	-7%
Fc1ccccc1OCCCCCCN1CCCC1	-13%
CCn1c(CSc2nnc(C)n2-c2ccccc2)nc2cc(S(=O)(=O)N(C)C)ccc21	-13%
O=c1ncn(-c2ccccc2C(F)(F)F)c2ncccc12	-4%
Cc1ccc(N(C(C)C(=O)Nc2ccc(S(=O)(=O)N3CCOCC3)cc2)S(C)(=O)=O)cc1C (centres undefined)	-5%
COCc1cc(=O)[nH]c(/N=C(\N)Nc2ccc(C)cc2)n1	-10%
COc1ccccc1Oc1c(C)oc2c(CN(C)C)c(O)ccc2c1=O	?
CCOc1cc(/C=C2/SC(=Nc3ccccc3)N(Cc3cccnc3)C2=O)ccc1OCC#N	?
O=C1/C(=C/N(C(=O)c2ccco2)c2ccc(Br)cc2)Sc2ccccc21	32µM*
O=C(Oc1ccccc1)c1ccc2nccnc2c1	-13%
CCn1c(COc2cccc(C)c2)nnc1SCC(=O)Nc1cccc(C(=O)O)c1	-2%
COc1ccc(/C=C/c2cc(=O)c3cc(Cl)ccc3o2)cc1	-15%
Cc1ccccc1-n1nc(C(=O)O)cc1-c1ccccc1	2%
Cc1cc(OCC(C)C)ccc1/C(O)=C1/C(=O)C(=O)N(Cc2cccnc2)C1c1ccncc1 (centres undefined)	-24%
CCc1ccc(/C=C/C(=O)c2c(C)cc(C)[nH]c2=O)cc1	-8%
CC(COC(=O)c1ccccc1)(COC(=O)c1ccccc1)/[N+]([O-])=C/c1ccccc1	0%
COc1ccc(NC(=O)c2oc3ccccc3c2NC(=O)C(C)(C)C)cc1	-10%
COc1cc(OC)c2c(OC)cccc2n1	?
O=C(Nc1ncc(Cl)cn1)c1cccs1	-12%
CCCN1C(=O)CC(c2ccco2)Sc2ccccc21 (centres undefined)	-14%
O=C(O)C1CC=CCC1C(=O)NCCc1csc(-c2ccccc2)n1 (centres undefined)	-5%
Cc1ccccc1C(=O)N[C@H](C(=O)OCC(=O)c1ccc[nH]1)C(C)C	-10%
Cc1cc([N+](=O)[O-])nn1Cc1c(F)c(F)c(F)c(F)c1F	-16%
CC(=O)NC(CCS(C)(=O)=O)C(=O)Nc1ccccc1Cl (centres undefined)	4%
Nn1c(SCC(=O)Nc2ccccc2F)nc2ccccc2c1=O	-2%
CCOc1ccc(NC(=O)N(C2CCCCC2)C(C)c2cccnc2)cc1 (centres undefined)	-7%
CC(C)NC[C@@H](O)c1ccc(O)c(O)c1	-2%
COc1cccc(OCCCOc2ccc([N+](=O)[O-])cc2Cl)c1	18µM*
Cc1cc(NC(=O)CCc2ccc(S(=O)(=O)N3CCOCC3)cc2)n(-c2ccccc2)n1	-8%
O=C(CN1CCN(Cc2ccccc2Cl)C1=O)NCC1CCCO1 (centres undefined)	-1%
CCCCNC(=O)Cc1coc2ccc3ccccc3c12	14µM*
COc1ccc(C(CNC(=O)c2cc(=O)[nH]c3ccccc23)N2CCCC2)cc1 (centres undefined)	-15%
O=C(c1cc2cc(Br)cc(Br)c2oc1=O)N1CCCc2ccccc21	-15%
CCOC(=O)C1=C(C)N(CCO)C(=O)NC1c1cccc(O)c1 (centres undefined)	-10%
CCOC(=O)N1CCN(C(=O)C(CC)c2ccccc2)CC1 (centres undefined)	-4%
COC(=O)C1=C(C(=O)OC)[C@@H]2N(C)c3ccc(OC)cc3[C@@]23C[C@@H](C(=O)OC)N(S(=O)(=O)c2ccc4c(c2)OCCN4C)C3=N1	-12%
C=CCN1c2ccccc2[C@]23C[C@@H](C(=O)OC)N(C(=O)c4ccco4)C2=NC(C(=O)OC)=C(C(=O)OC)[C@H]13	5%
CC1(C(=O)NC2CCCCC2)CCC(=O)N1Cc1cccs1 (centres undefined)	2%
CC1(C)Oc2ccc(C(=O)N3CCOCC3)cc2N(CC(=O)N2CCOCC2)C1=O	-8%
CCNC(=S)NNC(=O)c1ccoc1C	-5%
O=C(NCCO)c1cccc(S(=O)(=O)N2CCCCC2)c1	-5%
CC(C)(C)c1nc2ccccc2c(=O)n1N1C(=O)c2ccccc2C1=O	-10%
Cc1c(Br)c([N+](=O)[O-])nn1CC(=O)NCc1cccnc1	-6%
Cc1cccc(Nc2ncnc3nc[nH]c23)c1C	-15%
CCCN1C(=O)/C(=C/c2c(NCCCOCC)nc3c(C)cccn3c2=O)SC1=S	-12%
O=C(N1CCOCC1)N(CCN1CCOCC1)Cc1cccc(Cl)c1	0%
O=C(Cc1cccs1)Nc1cccc(-c2nc3cc4ccccc4cc3[nH]2)c1	?
Cc1ccc(C(=O)N/C(=C/c2ccc(-c3cccc([N+](=O)[O-])c3)o2)C(=O)NC(C)C)cc1	-7%
CCOC(=O)C1CCN(C(=O)CS(=O)Cc2nc(-c3ccc(C)cc3)oc2C)CC1 (centres undefined)	-15%
CCn1c(SCC(=O)N2c3ccccc3Sc3ccccc32)nc2c1c(=O)n(C)c(=O)n2C	-12%
O=C(CSc1ccc(-c2ccccc2)nn1)N1CCOCC1	-22%
COCCN(C(=S)Nc1ccccc1C)C(C)c1cccs1 (centres undefined)	-2%
S=C1Nc2cc(Cl)ccc2Sc2ccccc21	-14%
O=C(CSc1nnc(-c2cccs2)o1)N1CCCc2ccccc21	-20%
O=c1cc(-c2ccccc2)c2ccc(O)c(CN3CCCCC3)c2o1	?
Cc1c(Cl)cnc(NC(=O)COC(=O)c2nn(C)c(=O)c3ccccc23)c1Cl	-29%
CCOC(=O)c1ccc(NC(=O)c2cccc(S(=O)(=O)N3c4ccccc4CC3C)c2)s1 (centres undefined)	?
CC1=NN(c2ccccc2)C(=O)/C1=C\c1ccc(Br)s1	28µM*
Cc1cc(-c2ccccc2)nc2[n+]1CCN2C	-12%
CCN(CC)C(=O)CSc1nc2ccccc2c(=O)n1OC	-14%

# The listing continues:
SMILES	HPGD block
COc1ccc2nc(SCC(=O)N3CC(=O)Nc4ccccc43)c(C#N)cc2c1	?
O=C(CSc1nc2ccccc2o1)Nc1ccc(N2CCOCC2)cc1	-15%
Clc1ccc2[nH]c3c(N4CCC5(CC4)OCCO5)ncnc3c2c1	?
O=S(=O)(CCc1ccccc1)c1nnnn1-c1ccccc1	-2%
CCCn1nc(C(=O)NCc2ccccn2)c2ccccc2c1=O	-4%
C[n+]1cnc(-c2ccccc2)cc1-c1ccccc1	-14%
